# High-throughput results from PubChem BioAssay.
# Kir21 inh = inhibitors of mouse Kir2.1 inward-rectifier potassium channel; Inward rectifier potassium channel 2 (Mus musculus), P35561; HEK293-Kir2.1, FluxOR thallium flux fluorescence; stronger effect = lower value; B-score at 10 µM; 310,000 compounds, 0.85% hits;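 active = fluorescence ratio B-score at or below minus 3 SD of library scores, with starting-brightness B-score within 2 SD, cut at about -4.2 in these data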;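 also: channel flux triggered by added potassium and thallium sulfate stimulus; B-score of peak minus minimum fluorescence over baseline after thallium stimulus; more negative B-score means stronger Kir2.1 block with less thallium influx; some compounds called inactive have numbers as strong as hits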
# Target sequence (P35561 whole entry, looked up): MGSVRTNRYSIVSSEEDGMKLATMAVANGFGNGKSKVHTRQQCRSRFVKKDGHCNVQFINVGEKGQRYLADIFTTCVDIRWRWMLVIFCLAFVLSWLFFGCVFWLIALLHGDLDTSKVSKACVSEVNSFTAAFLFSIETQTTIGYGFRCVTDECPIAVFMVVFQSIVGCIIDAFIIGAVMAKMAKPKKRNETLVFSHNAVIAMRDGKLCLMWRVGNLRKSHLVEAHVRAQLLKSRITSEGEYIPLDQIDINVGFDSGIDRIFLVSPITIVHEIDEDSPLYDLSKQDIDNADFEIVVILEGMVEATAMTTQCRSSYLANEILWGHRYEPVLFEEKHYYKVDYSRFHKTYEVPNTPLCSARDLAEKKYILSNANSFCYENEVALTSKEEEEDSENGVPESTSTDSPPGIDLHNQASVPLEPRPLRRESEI
# * = called active by the depositor.
Kir21 inh	compound
0.39	COc1ccc(/C=N/n2c(=O)[nH]c3c([nH]c4ccc(Cl)cc43)c2=O)cc1CN1CCCCC1
0.35	O=C(OCc1c(Cl)cccc1Cl)c1ccncc1
-0.56	Cc1ccc(NC(=O)Cn2nnc(C(=O)NCc3ccccc3)c2N)cc1C
-0.27	Cc1ccc2c(Cn3cc(C(F)(F)F)cc(Cl)c3=O)cc(=O)oc2c1
-0.75	COc1cccc(OC)c1C(=O)O/N=C(\N)c1ccncc1
-0.14	CCN1CCN(C(c2cccs2)C(C)NC(=O)c2cccc(OC)c2OC)CC1 (stereo not given)
-0.19	O=C1SCCc2c1n(Cc1ccccc1)c1ccccc21
-0.02	CCn1cnc2sc(C(=O)Oc3ccc(Br)cc3)c(C)c2c1=O
1	CC(=O)C1=C(O)C(=O)N(CC(=O)O)C1c1ccccc1Cl (stereo not given)
0.44	O=c1cc(O)n(-c2ccccc2F)c(=S)[nH]1
0.41	CCOC(=O)Cn1c(-c2nonc2NC(=O)c2ccccc2F)nc2ccccc21
-1.91	Cc1n[nH]c(=O)n1-c1ccc(C(C)C)cc1
-0.29	O=C(CC(=O)N1CCN(c2ccccn2)CC1)Nc1ccc2nc3n(c(=O)c2c1)CCCCC3
2.17	O=C1CN(C(=O)COC(=O)c2cccc(OCc3ccccc3)c2)c2ccccc2N1
0.68	O=C(Nc1scc(-c2ccccc2)c1C(=O)O)c1ccccc1Cl
-0.89	CCC(C)Sc1ccc([C@H]2N[C@@](CC(C)C)(C(=O)OC)[C@H]3C(=O)N(C)C(=O)[C@@H]23)cc1 (stereo not given in full)
-0.88	O=C(CCCN1CCOC(c2ccccc2)C1)c1ccc(F)cc1 (stereo not given)
-2	CCOC(=O)c1[nH]nc2c1C(=O)N(Cc1ccccc1)C2=O
-1.21	CCCCc1c(O)nc(SCC(=O)N2CCOCC2)n(-c2ccc(OC)cc2)c1=O
0.71	CC(=O)NC(=S)Nc1ccc(NC(=O)COc2ccc(Cl)cc2)cc1
1.02	COc1cccc(C(=O)NCC(=O)N2CCC3(CC2)NCCc2[nH]cnc23)c1OC
-0.48	CC(=O)Nc1nc(C)c(C(C)(C)C)s1
-1.24	CCC(Sc1ccc2nnc(-c3ccc(F)cc3)n2n1)C(=O)O (stereo not given)
-0.24	O=C1CC(C(F)(F)C(F)(F)C(F)(F)C(F)F)=Nc2ccccc2N1
-1.16	COc1ccccc1NC(=O)CSc1nnc(Cn2cnc3ccccc32)n1C
0.15	CCc1ccc(Nc2nc(N)nc(CSc3nnnn3-c3ccccc3)n2)cc1
-1.14	CC12CCC3(CO)COC(c4ccccc4O1)C2C3 (stereo not given)
0.02	CCOC(=O)c1cnn(-c2nc(-c3ccccc3)cs2)c1C(F)(F)F
0.99	O=C(NNC(=O)C1C2CCCCC21)c1coc(=O)c(Br)c1 (stereo not given)
0.02	Cc1ncc(CO)c2cc(S(=O)(=O)c3ccc(F)cc3)c(=O)oc12
-1.63	COc1ccc(C2CC(c3ccco3)n3ncnc3N2)cc1 (stereo not given)
0.02	CCc1ccc(-c2cc3c(=O)n(CC(=O)N4CCCC4)nc(C)n3n2)cc1
0.28	CCCCCN1CC(O)=C(c2nc(-c3ccc(Cl)cc3)cs2)C1=N
0.78	Cc1ccnn1CCC(=O)O
0.13	Cc1ccc(SCC(=O)c2c(C)[nH]c3ccccc23)cc1
-0.15	O=C(CCCc1ccccc1)NCCCN1CCOCC1
-0.17	CCN(C(=O)Cn1nnc(-c2ccccc2)n1)C1CCS(=O)(=O)C1 (stereo not given)
0.47	S=C(Nc1ccc(Cl)cc1)N1CCCCC1
0.47	Cc1nc2cc(NC(=O)CS(=O)(=O)c3ccccc3)ccc2s1
0.17	COc1cccc(/C=N/n2c(=S)n(C)c3cc(C)c(C)cc32)c1OC
0.37	CCc1ccc(C(=O)c2cncc(Br)c2)cc1
1.95	CC(C)(C)c1cn(-c2ccccc2)c(=S)[nH]1
-0.07	O=C(COC(=O)c1ccc(Cl)nc1)Nc1nnc(-c2ccccc2)o1
1.76	CCCCc1cc(=O)oc2cc(OC3CCCCC3=O)ccc12 (stereo not given)
0.7	Cc1cccc(NC(=O)CN(C)S(=O)(=O)c2cccc3cccnc23)c1C
0.9	CN1C(=O)/C(=C/c2cn(CC(=O)N3CCCCC3)c3ccccc23)c2ccccc21
0.37	O=C(Cc1ccccc1)N/N=C/c1cc(Br)c(Br)o1
1.5	NC(=O)CSc1nnc(Cc2csc(Nc3ccc(F)cc3)n2)n1Cc1ccccc1
0.05	CC(Nc1cccc2ccccc12)C(=O)N/N=C/c1ccc([N+](=O)[O-])cc1 (stereo not given)
0.97	COc1cc(NC(=O)COC(=O)/C=C/c2c(C)nn(C3CCS(=O)(=O)C3)c2Cl)cc(OC)c1OC (stereo not given)

# As a working copy, 3 of the compounds above.
Kir21 inh	compound
0.02	CCOC(=O)c1cnn(-c2nc(-c3ccccc3)cs2)c1C(F)(F)F
0.99	O=C(NNC(=O)C1C2CCCCC21)c1coc(=O)c(Br)c1 (stereo not given)
0.02	Cc1ncc(CO)c2cc(S(=O)(=O)c3ccc(F)cc3)c(=O)oc12

# Later entries
Kir21 inh	compound
1.49	CC(OC(=O)c1ccccc1NCCO)C(=O)Nc1ccc(S(=O)(=O)N2CCOCC2)cc1 (stereo not given)
0.34	COC(=O)c1c(NC(=O)CSc2nnnn2-c2ccccc2)sc2c1CCC(C(C)(C)C)C2 (stereo not given)
1.88	CS(=O)(=O)N1N=C(c2ccco2)CC1c1ccc(Br)cc1 (stereo not given)
-0.92	O=C1C=C(Nc2ccccc2C(=O)O)c2ccccc2C1=O
0.58	COc1cc(OC)cc(C(=O)OCC(=O)N2CCCC2)c1
0.35	COc1ccc(CCNC(=O)CN(C2CCCCC2)S(C)(=O)=O)cc1
-0.13	Cc1cc(C)n(C(=O)CCC2COc3ccccc3O2)n1 (stereo not given)
0.98	CCc1ccc(NC(=S)N2CCN(S(=O)(=O)c3ccccc3)CC2)cc1
1.31	S=c1[nH]nc2c3c4c(sc3ncn12)CCCC4
-1.41	N#Cc1nc(COc2ccc(Br)cc2)oc1NCCN1CCOCC1
-1.38	COC(=O)CSc1nc2c(c(=O)[nH]c(=O)n2C)n1CCC(C)C
0.02	COCC(=O)N(Cc1cc2cc(OC)ccc2[nH]c1=O)c1ccccc1OC
-0.13	CC(NC(=O)COC(=O)/C=C/c1ccc(Cl)cc1)c1ccccc1 (stereo not given)
0.22	NS(=O)(=O)c1ccc(CCNC(=O)c2ccc(Cl)nc2)cc1
0	CCOc1cc(N2CCOCC2)c(OCC)cc1NC(=O)COC(=O)CCc1c[nH]c2ccccc12
-1.26	Cc1cccc(CSC2=CS(=O)(=O)c3ccccc3N2)c1
-0.81	Cc1ccnc(NC(=O)c2ccc(Br)s2)c1
-0.83	CC(C)Nc1nc(-c2ccccc2)nc(-n2ccnc2)n1
0.43	Cc1cccc(NC(=O)CSc2nc(C)c(Cc3ccccc3)c(=O)[nH]2)c1
-1.3	CN1C(=O)C(=O)N(c2cccc(C(F)(F)F)c2)C1=O
-1.83	CN1CCN(c2cc(=O)n(C3CCCCC3)c(=O)[nH]2)CC1
0.73	O=C(NNC(=O)c1n[nH]c(=O)c2ccccc12)c1ccc(Br)cc1
-0.55	Cc1ccc(/C=N/n2cc(-c3ccccc3)[nH]c2=S)s1
0.09	O=C(Nc1cccc(C(=O)N2CCOCC2)c1)c1cccnc1
-1	COc1ccccc1NC(=S)N(Cc1ccccn1)Cc1ccccc1Cl
-0.01	O=[N+]([O-])c1ccc(Cl)c(S(=O)(=O)Nc2ccc(-c3ccc(N4CCOCC4)nn3)cc2)c1
0.96	COc1ccc(CCNC(=O)c2ccc(CNS(=O)(=O)c3cccc(Cl)c3)cc2)cc1OC
0.12	CCC(C)Sc1nnc(CSc2nc(C)cc(C)n2)n1C (stereo not given)
-1.24	CC(=O)c1nn(-c2ccccc2)cc1C(=O)c1cccc(Br)c1
-0.95	CC1(C)Cc2nc(-c3ccccc3)n3cnnc3c2CO1
0.28	NS(=O)(=O)c1ccc(NC(=O)CSc2ccccn2)cc1
0.53	Cc1ccccc1-c1ccc(C(=O)Nc2cccc(F)c2)o1
-0.85	Cc1ccc2nc(SCc3cccc([N+](=O)[O-])c3)nc(C)c2c1
-1.1	Cc1ccccc1NC(=O)/C(=C\c1cccs1)NC(=O)c1ccccc1
1.68	C=C(C)C(=O)Nc1cccnc1Oc1ccc(F)cc1F
1.1	CCN1CNC(=S)N(CCc2ccccc2)C1
-2.24	COc1ccc(-c2nc(C)ncc2N=Nc2ccccc2)cc1
-1.14	COC(=O)c1cc(-c2cccc(OC)c2)n[nH]1
0	CN(C)Cc1cn(CCC(=O)O)c2ccccc12
-1.22	CCOC(=O)C(CO)(NC(C)=O)C(=O)OCC
0.06	O=C(Cn1cnc2ccccc2c1=O)N1CCN(Cc2ccccc2)CC1
-0.66	O=C(Nc1cccc(-n2cnnn2)c1)c1cc(Cl)nc(Cl)c1
1.38	O=C(NC(=S)Nc1ccc(F)cc1)C1CCCCC1
-1.15	O=C(CSc1nnc(NC(=O)c2c(F)cccc2F)s1)Nc1ccc(F)cc1
-0.88	COc1ccc(CCN2CC(C(=O)N(C)Cc3ccc4nsnc4c3)CCC2=O)cc1 (stereo not given)
0.79	COCCCn1cn[nH]c1=S
-0.54	O=C(CSCc1cccc(Cl)c1)N/N=C/c1ccc(OCC(=O)N2CCCCC2)cc1
0.74	O=C(Nc1ccccc1C(=O)N1CCOCC1)C1CCC(=O)N1C1CCCC1 (stereo not given)
0.04	Clc1ccc(CCNc2ncnc3c2nnn3Cc2ccccc2)cc1
0.72	COC(=O)Cn1cnc2scc(-c3ccc(C)c(C)c3)c2c1=O

# Structural class, the entries above with a tert-butyl group.
Kir21 inh	compound
-0.48	CC(=O)Nc1nc(C)c(C(C)(C)C)s1
1.95	CC(C)(C)c1cn(-c2ccccc2)c(=S)[nH]1
0.34	COC(=O)c1c(NC(=O)CSc2nnnn2-c2ccccc2)sc2c1CCC(C(C)(C)C)C2 (stereo not given)

# New compounds follow
Kir21 inh	compound
0.01	CC1=NN(C(=O)Cc2ccccc2)C(O)(c2ccccc2)C1 (stereo not given)
-0.7	Cc1cc(C)nc(SCC(=O)Nc2nonc2N)n1
-0.8	O=C(c1cc(Br)c(Br)s1)N1CCN(c2ccccn2)CC1
-0.04	COc1ccc(-n2c(COc3ccccc3)nnc2SCc2ccc(C#N)cc2)cc1
-0.99	Cc1ccc(C(=O)N2CCN(CCNC(=O)C(=O)NCc3ccc(Cl)cc3)CC2)cc1
2.21	O=C(NC(=O)c1csnn1)Nc1ccccc1Cl
-0.76	COc1cc(NS(=O)(=O)c2ccc(NS(=O)(=O)c3ccccc3)cc2)nc(OC)n1
-2.85	CCN(CCCNS(=O)(=O)c1cc(-c2cc(C)no2)ccc1C)Cc1ccccc1
1.7	N#Cc1ccc(NC(=O)CCc2ccc(S(=O)(=O)N3CCOCC3)cc2)cc1
0.77	O=C(O)Cc1ccc(-n2cccc2)cc1
0.48	COCCn1c(SCC(=O)Nc2ccccc2F)nc2c([nH]c3ccccc32)c1=O
0.38	COc1ccc(C(=O)CC(=O)C(=O)Nc2c(C)cccc2C)cc1
-0.92	CCOc1ccc(CN2C(=O)c3ccccc3C2C(=O)NCC2CCCO2)cc1 (stereo not given)
0.49	CS(=O)(=O)c1ccc(C(=O)N(Cc2ccccc2)c2ccccc2)cc1
3.35	CN1CCC(=NNc2ccc(S(=O)(=O)N3CCOCC3)cc2[N+](=O)[O-])CC1
-1.06	Brc1ccccc1-c1nnc2sc(-c3ccc4c(c3)OCCO4)nn12
-0.84	CC(=O)c1cc(-c2ccc(F)cc2)n(CCC(=O)Nc2cccnc2)c1C
-1.01	Cc1cc(C)nc(SCc2nnc(SCC(=O)Nc3cc(C(F)(F)F)ccc3Cl)o2)n1
1.13	O=C(COC(=O)c1cnccn1)c1ccc2ccccc2c1
-0.21	CC(O)(CS(=O)(=O)Cc1ccccc1)C(=O)Nc1cccc(C(F)(F)F)c1 (stereo not given)
0.1	COc1ccc(OCC(=O)N/N=C(\C)c2cccs2)cc1
-0.18	Cc1nnc2n(c1=O)C(CS(=O)(=O)c1ccc3ccccc3c1)CS2 (stereo not given)
-0.01	CCCC(=O)c1ccc(N2CCOCC2)c(F)c1
-0.55	CCOC(=O)c1sc(NC(=O)CN(CC)CC)c(C(=O)OCC)c1C
-0.09	O=C(Nc1ccc(Cl)c(C(F)(F)F)c1)[C@@H]1CC=C[C@@H]2CCN(C3CCCCC3)C(=O)[C@@H]21

# Sorted by value in Kir21 inh (rising): 5 from the list above
Kir21 inh	compound
0.34	COC(=O)c1c(NC(=O)CSc2nnnn2-c2ccccc2)sc2c1CCC(C(C)(C)C)C2 (stereo not given)
0.37	CCc1ccc(C(=O)c2cncc(Br)c2)cc1
0.47	Cc1nc2cc(NC(=O)CS(=O)(=O)c3ccccc3)ccc2s1
0.9	CN1C(=O)/C(=C/c2cn(CC(=O)N3CCCCC3)c3ccccc23)c2ccccc21
0.98	CCc1ccc(NC(=S)N2CCN(S(=O)(=O)c3ccccc3)CC2)cc1

# Next part
Kir21 inh	compound
0.18	CCn1c(SCC(=O)NCc2ccc3c(c2)OCO3)nnc1-c1ccco1
1.51	CCC(C)NC(=O)[C@@H]1CCCN1C(=O)C1CCN(S(=O)(=O)c2ccc(C)cc2)CC1 (stereo not given in full)
0.43	Cc1onc(-c2c(F)cccc2Cl)c1C(=O)NCCCN1CCOCC1
-1.21	COc1ccc(OC)c(N(CC(=O)NCc2ccccn2)S(C)(=O)=O)c1
0.32	COc1ccc(OC)c(NC(=O)c2c(NC(=O)CNCc3ccco3)sc3c2CCC3)c1
-0.24	Cc1ccc(C(=O)CCC(=O)OCc2nnc(-c3ccccc3)o2)cc1
-0.31	Cc1ccc(Cn2ccc(NC(=O)c3cc(-c4ccco4)on3)n2)cc1
-0.39	CC(=O)N1c2c(cc(Br)cc2S(=O)(=O)NCc2ccc3c(c2)OCO3)CC1C (stereo not given)

# These rows are one share of the data; most or all hits stand in other tables.
